# Assay outcomes from PubChem.
# HSD17B inh: blocks hydroxysteroid 17-beta dehydrogenase activity; Q99714; recombinant HSD17B10, NADH fluorescence kinetic; many of its hits are not listed in these tables; Potency, µM (titrated, usually from 57.1 µM), inactives show at the top dose activity change, negative = inhibition, actives largely listed as inhibitors; 7.6% of 75,000 active; AID 893; active = well fitted inhibition curve with a large enough effect; inconclusive = small, poorly fitted or top-dose-only effect; inactive = no such curve, though single readings can be large or run the other way;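 also: the protocol describes HADH2 (HSD17B10) and not the HSD17B4 of the title; nearly all actives have a fitted effect of over 70% in size; most hits overshoot -100% by far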
#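 His-tagged E. coli-expressed HADH2 at 20 nM in 100 mM Tris-HCl pH 9.0 with 0.01 % Tween-20, preincubated 15 min with compound at room temperature. Reaction with 1 mM NAD+ and 90 uM beta-hydroxybutyryl coenzyme A; NADH fluorescence (360/450 nm) read kinetically over 4 min, last minus first point.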
# The depositor's hits bear a star; ? = inconclusive; [ ] = remark or other dose. % is scaled to controls: 0 for no effect and ±100 for the full control effect; potency is read from the fitted curve at half-maximal effect. Some of the compounds tested (hit frequency here may not be typical).
> COC1C(O)C(CO)OC1n1c(Br)nc2c(=O)[nH]c(N)nc21 (stereo unspecified)
  HSD17B inh: -0.8%
> Cc1ccc(-c2noc(CCC(=O)NCc3ccc4c(c3)OCO4)n2)cc1
  HSD17B inh: -2.5%
> CCn1cc(C(=O)Nc2cc3c(cc2NC(C)=O)OCCO3)c(=O)c2ccc(C)nc21
  HSD17B inh: 6.7%
> CC(C)(c1cc(Br)c(O)c(Br)c1)c1cc(Br)c(O)c(Br)c1
  HSD17B inh: 10µM*
> Cc1nc(Cc2nnc(SCc3nc(N)nc(Nc4ccccc4C)n3)o2)cs1
  HSD17B inh: 3.5%
> CC(=O)c1c(C(C)=O)c(C)n(NC(=O)c2ccccc2O)c1C
  HSD17B inh: -17.1%
> CCOC(=O)CN1CC23C=CC(O2)C(C(=O)NC2CCCCCC2)C3C1=O (stereo unspecified)
  HSD17B inh: 1.2%
> CCN(CC)CCC(=O)NC(C)(C)Cc1ccc(O)cc1
  HSD17B inh: 1.2%
> C=CCNc1nc(NC(C)(C)CO)nc(OCC)n1
  HSD17B inh: 6.0%
> CCCCCCC1=Cc2cc(OC)c(OC)cc2C(CC(=O)/C=C/OC)O1 (stereo unspecified)
  HSD17B inh: -6.7%[11.4 µM]
> Cc1ccc(C(c2nnnn2CCC(C)C)N2CCN(C)CC2)cc1 (stereo unspecified)
  HSD17B inh: 0.3%
> Cc1cc2c(cc1C)NC1=C(N2)O[C@H](c2c[nH]c3ccc(COc4ccccc4)cc23)C1=O
  HSD17B inh: -6.7%[11.4 µM]
> CC(C)C(C(=O)Nc1ccc2c(c1)OCCO2)N1C(=O)c2ccccc2C1=O (stereo unspecified)
  HSD17B inh: 1.7%
> O=C(Cn1ncc2c(=O)oc3ccccc3c21)N1CCCc2ccccc21
  HSD17B inh: 3.2%
> CCOc1cc2[nH]c(=O)n(CCCN3CCCC3=O)c(=O)c2cc1OCC
  HSD17B inh: 25.1µM*
> CCCCNC(=O)Cn1cnc2c(cnn2-c2ccc(C)c(C)c2)c1=O
  HSD17B inh: -0.1%
> O=C(O)CCNc1cc2ccccc2cc1C(=O)O
  HSD17B inh: ?
> CN(C)Cc1cc(C(C)(C)C)ccc1-c1ccc(C(C)(C)C)cc1CN(C)C
  HSD17B inh: -2.0%[11.4 µM]
> Cc1c(/C(O)=C2/C(=O)C(=O)N(Cc3cccnc3)C2c2cccs2)cnn1-c1ccccc1 (stereo unspecified)
  HSD17B inh: -5.0%
> Cc1ccc(S(=O)(=O)CCC(=O)Nc2ccc3c(c2)OCO3)cc1
  HSD17B inh: 2.1%
> COC(=O)c1ccccc1NC(=O)CSc1nnc(COc2cccc(OC)c2)n1C
  HSD17B inh: 6.0%
> O=C(Nc1cc(C(F)(F)F)ccc1N1CCOCC1)c1cncc(Br)c1
  HSD17B inh: ?
> CCc1cc2c(nc1CC)CCN(CC/C(C)=N/O[C@@H](C)c1cn([C@@H]3COC[C@@H]3O)nn1)C2
  HSD17B inh: 2.8%[11.4 µM]
> CCOC(=O)Cn1c2ccccc2c2nc3ccccc3nc21
  HSD17B inh: ?
> Cc1cc(NC(=O)CSc2nc(-c3ccco3)cc(C(F)(F)F)n2)n(-c2ccccc2)n1
  HSD17B inh: 13.8%

# Three records picked at random from those above:
> Cc1ccc(S(=O)(=O)CCC(=O)Nc2ccc3c(c2)OCO3)cc1
  HSD17B inh: 2.1%
> O=C(Cn1ncc2c(=O)oc3ccccc3c21)N1CCCc2ccccc21
  HSD17B inh: 3.2%
> Cc1cc2c(cc1C)NC1=C(N2)O[C@H](c2c[nH]c3ccc(COc4ccccc4)cc23)C1=O
  HSD17B inh: -6.7%[11.4 µM]

# Gathered by group, those above containing an aryl methoxy group (two)
> CCCCCCC1=Cc2cc(OC)c(OC)cc2C(CC(=O)/C=C/OC)O1 (stereo unspecified)
  HSD17B inh: -6.7%[11.4 µM]
> COC(=O)c1ccccc1NC(=O)CSc1nnc(COc2cccc(OC)c2)n1C
  HSD17B inh: 6.0%

# (more compounds)
> CCOc1cc(C2NC(=O)NC(C)=C2C(=O)OC(C)CC)cc(Br)c1O (stereo unspecified)
  HSD17B inh: -1.2%
> CC(=O)N1CCc2cc(C(=O)CN3CCN(c4ccccc4F)CC3)ccc21
  HSD17B inh: -4.2%
> CC1(C)OC(=O)C(=CNc2ncccn2)C(=O)O1
  HSD17B inh: 6.7%
> O=C1CN2C(=N1)N(Cc1ccccc1)c1ccccc12
  HSD17B inh: -1.1%
> O=C(CCn1c(=S)[nH]c2ccccc2c1=O)N1CCOCC1
  HSD17B inh: -1.0%
> Cc1ccc2[nH]c3c(NCCCN4CCCC4=O)ncnc3c2c1
  HSD17B inh: 15.8µM*
> C=CCN1CCN(C(c2cc(OC)ccc2OC)c2nnnn2CC2CCCO2)CC1 (stereo unspecified)
  HSD17B inh: -6.3%
> Fc1ccc(-c2noc(C3CCN(Cc4cccnc4)CC3)n2)cc1
  HSD17B inh: 5.3%
> CCOC(=O)c1cc2c(=O)n3cccc(C)c3nc2n(CCc2ccc(OC)c(OC)c2)c1=N
  HSD17B inh: 8.8%
> CCN1CCN(CCCNC(=O)C2CCCN(c3nnc(-n4cccc4)s3)C2)CC1 (stereo unspecified)
  HSD17B inh: -5.3%
> CN(CCNC(=O)Cn1c(=O)sc2ccccc21)Cc1ccccc1
  HSD17B inh: -1.3%
> COc1cc(OC)c2ccc(=O)oc2c1
  HSD17B inh: 25.1µM*
> Cc1cc(C)n2c(SCCN3C(=O)c4ccccc4C3=O)nnc2n1
  HSD17B inh: 19.5%
> COc1ccccc1-c1coc2cc(O)cc(O)c2c1=O
  HSD17B inh: 2.6%
> Cc1ccc(Cl)c2c1NC(=O)C2(O)CC(=O)c1ccccc1O (stereo unspecified)
  HSD17B inh: -6.1%
> Cc1sc(NC(=O)c2oc3ccccc3c2C)c(C#N)c1C
  HSD17B inh: ?
> Cc1ccc(-c2nn(C)c(=O)c3ccccc23)cc1S(=O)(=O)N1CCCC1
  HSD17B inh: -0.9%
> O=C(Nc1ccon1)c1cc(-c2ccccc2)nc2ccccc12
  HSD17B inh: ?
> CCC(C)(C)n1nnnc1C(c1cc2cc(OC)ccc2[nH]c1=O)N1CCc2ccccc21 (stereo unspecified)
  HSD17B inh: -3.0%
> CCOCCn1c(SCC)nc2c1c(=O)[nH]c(=O)n2C
  HSD17B inh: -1.8%
> Cc1ccc(S(=O)(=O)c2cccc(S(=O)(=O)N3CCCC3)c2)cc1S(=O)(=O)N1CCCC1
  HSD17B inh: 1.7%
> COc1ccc(S(=O)(=O)NC(C)C(=O)Nc2ccccc2F)cc1 (stereo unspecified)
  HSD17B inh: -6.3%
> O=C(c1ccc(Br)o1)N1CCN=C1SCc1cccnc1
  HSD17B inh: -3.1%
> CCN(CC)c1nc2n(c(=O)n1)CCO2
  HSD17B inh: 4.9%
> Cc1ccc(OCC(=O)N2CCCCC2)c(Br)c1
  HSD17B inh: 2.4%

> O=C(Cc1cccs1)OCC(=O)c1ccco1
  HSD17B inh: -7.7%
> COC(=O)[C@@H]1C[C@H]2CC[C@H](O)C[C@H]2N1Cc1ccc(C(F)(F)F)cc1
  HSD17B inh: 18.4%
> CCCCCOc1ccc(C2C(C(C)=O)=C(C)Nc3ncnn32)cc1OC (stereo unspecified)
  HSD17B inh: -1.5%
> CN(C)C(=O)Nc1cnc2ccccc2c1
  HSD17B inh: -13.3%
> CCc1cc2c(nc1CC)CCN(CC/C(C)=N/OC[C@@H](O)COCc1ccco1)C2
  HSD17B inh: 5.1%[11.4 µM]
> Cn1c(=O)n(C)c2cc(S(=O)(=O)NCc3ccco3)ccc21
  HSD17B inh: 5.4%
> COC(=O)c1sc(N2C(=O)C(O)=C(C(=O)c3ccc(C)o3)C2c2ccc(F)cc2)nc1C (stereo unspecified)
  HSD17B inh: 20µM*
> COC(=O)c1ccc(OCCn2cnc3ccccc3c2=O)cc1
  HSD17B inh: 1.7%
> COC(=O)c1ccc(CSc2nc3c(c(=O)n2-c2ccccc2)SCC3)o1
  HSD17B inh: 5.0%
> Cc1nn(-c2ccccc2)c2sc(-c3n[nH]c(=S)o3)cc12
  HSD17B inh: 15.8µM*
> CCCn1c(C)nc2c(NCCN3CCCC3)nc(C)nc21
  HSD17B inh: 23.4%
> COc1ccc(C2N(c3ccc(OC)cc3)C(=O)C3CCCN32)cc1 (stereo unspecified)
  HSD17B inh: 4.4%
> CCOC(=O)N1CCN(S(=O)(=O)c2cccc3ccc(C)nc23)CC1
  HSD17B inh: -2.1%
> COc1cccc(-c2cc(C(=O)Nc3cc(OC)c(OC)c(OC)c3)no2)c1
  HSD17B inh: -11.9%
> CCN(CC)S(=O)(=O)c1cccc(C(=O)Nc2cc(C)nn2-c2nc(C)cc(C)n2)c1
  HSD17B inh: 0.3%
> COc1ccccc1C1C(C(=O)c2sc(C)nc2C)=C(O)C(=O)N1CCN1CCOCC1 (stereo unspecified)
  HSD17B inh: -5.1%
> CC(C)(CO)NC(=O)C(c1ccccc1)c1ccccc1
  HSD17B inh: -4.1%
> c1ccc(Cn2ncc3c(N4CCCCC4)ncnc32)cc1
  HSD17B inh: 6.1%
> COc1ccc(NC(=O)CN2CCN(S(=O)(=O)c3ccc(C(C)C)cc3)CC2)cc1OC
  HSD17B inh: -3.0%
> O=C(c1ccc(COc2ccccc2Cl)o1)N1CCN(Cc2ccc3c(c2)OCO3)CC1
  HSD17B inh: 10.9%
> O=C(Nc1ccccc1C(F)(F)F)c1cc(S(=O)(=O)N2CCC3(CC2)OCCO3)ccc1F
  HSD17B inh: -4.0%
> O=C1[C@H]2[C@H]3[C@H](O)[C@H](O)C/C(=N/OC[C@@H](O)COCc4ccco4)[C@H]3CC[C@@H]2C(=O)N1c1cccc(Oc2ccccc2)c1
  HSD17B inh: -1.1%[11.4 µM]
> COc1ccc(NCc2nnc(SCC#N)n2-c2ccccc2OC)cc1
  HSD17B inh: -3.3%
> CC(=O)c1cccc(-n2nnnc2SCC(=O)Nc2cccc(NC(=O)c3ccco3)c2)c1
  HSD17B inh: -2.3%
> O=C(Nc1ccc2c(c1)OCO2)C(c1ccccc1)N1CCN(C(=O)c2ccco2)CC1 (stereo unspecified)
  HSD17B inh: -4.3%

# 3 of the compounds above, bar-delimited.
Molecule | HSD17B inh
O=C(c1ccc(COc2ccccc2Cl)o1)N1CCN(Cc2ccc3c(c2)OCO3)CC1 | 10.9%
O=C1[C@H]2[C@H]3[C@H](O)[C@H](O)C/C(=N/OC[C@@H](O)COCc4ccco4)[C@H]3CC[C@@H]2C(=O)N1c1cccc(Oc2ccccc2)c1 | -1.1%[11.4 µM]
COC(=O)c1sc(N2C(=O)C(O)=C(C(=O)c3ccc(C)o3)C2c2ccc(F)cc2)nc1C (stereo unspecified) | 20µM*

# (listing goes on)
> Cc1ccccc1OCCCN1CCCC1
  HSD17B inh: 7.8%
> CCNC(=O)CSc1nc2ccccc2c(=O)n1OC
  HSD17B inh: 5.6%
> COc1ccc(-c2nc(-c3ccc(Br)o3)no2)cc1OC
  HSD17B inh: ?
> Cc1cc(=O)[nH]c2c(C)c(N)ccc12
  HSD17B inh: 25.1µM*

# 6 entries from above, arranged by SMILES length, largest number first:
> CC(=O)c1cccc(-n2nnnc2SCC(=O)Nc2cccc(NC(=O)c3ccco3)c2)c1
  HSD17B inh: -2.3%
> O=C(Nc1ccc2c(c1)OCO2)C(c1ccccc1)N1CCN(C(=O)c2ccco2)CC1 (stereo unspecified)
  HSD17B inh: -4.3%
> COc1ccc(-c2nc(-c3ccc(Br)o3)no2)cc1OC
  HSD17B inh: ?
> CCNC(=O)CSc1nc2ccccc2c(=O)n1OC
  HSD17B inh: 5.6%
> Cc1cc(=O)[nH]c2c(C)c(N)ccc12
  HSD17B inh: 25.1µM*
> Cc1ccccc1OCCCN1CCCC1
  HSD17B inh: 7.8%
